Bioassay records as filed in PubChem BioAssay.
StopGo RLuc – Primary qHTS Assay for Foot and Mouth Disease Virus Antivirals against NCGC Sytravon and CBC Compound Libraries: Renilla Luciferase Signal; HEK cells with a luciferase reporter of 2A StopGo recoding; Potency, µM (highest dose often 57.5 µM), for inactives: at the top dose signal change, negative = less light; 120,000 tested, 0.32% active; active means well fitted falling curve with a large enough effect; inconclusive means small, poorly fitted or top-dose-only effect; inactive means no such curve, though single readings can be large or run the other way; also: nearly all actives have a fitted effect of over 55% in size; overnight with compound
2A firefly – Primary qHTS Assay for Foot and Mouth Disease Virus Antivirals against NCGC Sytravon and CBC Compound Libraries: Firefly Luciferase Signal | HEK cells with a luciferase reporter of 2A StopGo recoding | Potency, µM (top dose mostly 57.5 µM), inactives show at the highest dose signal change, negative = less light | 120,000 tested, 0.23% active; active = well fitted falling curve with a large enough effect; inconclusive = small, poorly fitted or top-dose-only effect; inactive = no such curve, though single readings can be large or run the other way; also: nearly all actives have a fitted effect of over 60% in size; overnight with compound
Active calls of the source: *; ? = inconclusive; & = joins results of further samples; [ ] = dose if it differs, or a comment. % is scaled to controls: 0 for no effect and ±100 for the full control effect; potency is read from the fitted curve at half-maximal effect. An excerpt (hit frequency here may not be typical).

| compound | 2A firefly | StopGo RLuc |
| --- | --- | --- |
| Clc1ccc2c3c([nH]c2c1Cl)CCC3 | 17.4% | 2.0% |
| COc1cc(C(=O)N2N=C(C)CC2(O)C(F)(F)F)cc(OC)c1OC (stereo not given) | 11.9% | 21.2% |
| Cc1cc(I)c2[nH]c(-c3ccccc3)c(-c3ccccc3)c2c1 | ? | ? |
| CCOC(=O)c1cc(NC(=O)OC)cc(C(=O)OCC)c1 | 4.4% | 24.5% |
| COc1ccc(C(C)=O)cc1CSCc1ccc(C#N)cc1 | 0.9% | 12.4% |
| Cc1ccc(Cl)cc1NC(=O)c1n[nH]c(=O)c2ccccc12 | 0.6% | -4.2% |
| Nc1c(-c2nc(-c3ccc(F)cc3)cs2)c2ccccn2c1C(=O)c1ccc2c(c1)OCO2 | -7.8% | -4.1% |
| Cc1[nH]c2ccccc2c1C(C(=O)O)N1CCN(Cc2cccc3ccccc23)CC1 (stereo not given) | -14.3% | -6.3% |
| O=C(COC(=O)c1ccc([N+](=O)[O-])cc1Cl)c1ccc2c(c1)OCCO2 | 3.6% | -1.8% |
| O=C(c1cccc(Cl)c1)N1CCC(c2nc3ccccc3o2)CC1 | 10.1%&-18.8% | 57.2%&21.2%[activator] |
| Cc1cc(-c2ccccc2)nc2cc(C(=O)Nc3cc(C(F)(F)F)ccc3Cl)nn12 | -22.8% | -18.6% |
| CCN(C(=O)CSc1nc(-c2ccccc2)no1)c1cccc(C)c1 | ? | ? |
| OC(CNC12CC3CC(CC(C3)C1)C2)COc1ccc(Cl)cc1Cl (stereo not given) | 5.6% | -1.3% |
| Cc1ccc(C(=O)CSc2nc3ccccc3c(=O)[nH]2)cc1 | 113.9%[activator] | 4.4% |
| CC1=C(C(=O)Nc2cc(C)cc(C)c2)C2(CCCCCC2)OC1=O | -5.4% | 5.9% |
| COc1ccc(CNC(=O)CCCN2C(=O)COc3ccc(C)cc32)cc1 | -1.7% | 2.0% |
| CC(C)(C)c1ccc(S(=O)(=O)NCc2nc3cccnc3n2Cc2ccccc2Cl)cc1 | -14.4% | 156.6%[activator] |
| CCN(CC)c1ccc(C=Nc2ccc(Br)cc2)cc1 | 1.1% | -6.9% |
| Cc1ccc2c(CN3CCN(CCc4ccccn4)CC3)cc(=O)oc2c1 | -10.9% | -18.7% |
| CCN(CCCNC(=O)c1nn(-c2ccc(OC)c(Cl)c2)c(=O)c2c1c1ccccc1n2C)c1ccccc1 | -21.2% | -13.8% |
| Cc1ccc(OCC(=O)OCc2cc(=O)n3ccsc3n2)cc1C | 23.5% | -6.8% |
| Cc1ccc(CN(C(=O)c2cc3ccccc3oc2=O)C2CCS(=O)(=O)C2)cc1 (stereo not given) | 106.8%[activator] | 0.8% |
| O=C(OCC(=O)N1CCOCC1)C1=NN(c2ccccc2)C(=O)CC1 | -4.5% | -7.5% |
| CCc1ccccc1NC(=O)CSCc1cnn(-c2ccccc2)c1-n1cccc1 | -9.8% | -5.6% |
| Cc1cccc(C(=O)C(Cl)C(=O)c2cccc(C)c2)c1 | 188.4%[activator] | 25.7% |
| COc1ccc(CNC(=O)COc2ncnc3ccc(Br)cc23)cc1 | 5.3% | -5.4% |
| COc1ccc(CC2C(=O)Nc3ccc(Br)cc32)c(OC)c1 (stereo not given) | -4.1% | 11.1% |
| COc1cc(NC(=O)CC2C(=O)N(c3cccc(C)c3)C(=O)N2Cc2ccco2)cc(OC)c1 (stereo not given) | 5.6% | 18.4% |
| Cc1nc(-c2ccc3ccccc3c2)cs1 | 211.3%[activator] | 7.0% |
| CCc1cccc(C)c1NC(=O)NC1COc2ccccc2C1 (stereo not given) | 12.3% | -7.6% |
| NC(=O)C1Cc2ccccc2CN1 (stereo not given) | 0.0% | 14.2% |
| O=C(Nc1cc(C(F)(F)F)ccc1Cl)c1cc(S(=O)(=O)NCc2ccccc2)ccc1F | -17.6% | -9.2% |
| Cc1cccc(N2C(=O)C(CC(=O)Nc3cccc(F)c3)N(Cc3cccs3)C2=O)c1 (stereo not given) | -2.0% | 244.8%[activator] |
| COc1ccc(OCC(=O)Nc2cccc3cccnc23)cc1 | 25.8% | 10.6% |
| Cc1cccc(OCCC(=O)OC(C)C(=O)Nc2ccc(S(N)(=O)=O)cc2)c1 (stereo not given) | -10.6% | -6.8% |
| CCOc1ccc2cc(-c3csc(Nc4ccccc4F)n3)c(=O)oc2c1 | 122.4%[activator] | 4.9% |
| CC(C)CC(=O)Nc1nnc(SCc2cc(=O)n3ccccc3n2)s1 | -26.1% | -9.2% |
| CCCn1c(N2CCN(Cc3c(F)cccc3Cl)CC2)nc2c1c(=O)[nH]c(=O)n2C | 3.0% | 2.0% |
| COc1ccc(C(=O)Nc2ccc(NC(=O)C34CC5CC(CC(C5)C3)C4)cc2)cc1 | 1.5% | -2.7% |
| CCC(C(=O)Nc1nnc(COc2ccccc2)s1)c1ccccc1 (stereo not given) | 0.1% | 12.8% |

One compound at a time, as listed above. Order of screens: 2A firefly	StopGo RLuc
COc1ccc(OCC(=O)Nc2cccc3cccnc23)cc1 across the screens: 25.8%	10.6%
COc1ccc(C(=O)Nc2ccc(NC(=O)C34CC5CC(CC(C5)C3)C4)cc2)cc1 across the screens: 1.5%	-2.7%
CCC(C(=O)Nc1nnc(COc2ccccc2)s1)c1ccccc1 (stereo not given) across the screens: 0.1%	12.8%
O=C(Nc1cc(C(F)(F)F)ccc1Cl)c1cc(S(=O)(=O)NCc2ccccc2)ccc1F across the screens: -17.6%	-9.2%
Cc1cccc(OCCC(=O)OC(C)C(=O)Nc2ccc(S(N)(=O)=O)cc2)c1 (stereo not given) across the screens: -10.6%	-6.8%

The list goes on:
| compound | 2A firefly | StopGo RLuc |
| --- | --- | --- |
| CCN(CC(=O)Nc1ccc(NC(C)=O)cc1)C(=O)c1nn(-c2ccccc2)c2c1CCC2 | 20.7% | 27.0% |
| Cc1c(-c2cccc(NC(=O)Cc3ccccc3)c2)nc2ncccn12 | 43.7%[activator] | -10.6% |
| COc1ccc(Nc2nc(-c3cc4cc(Br)ccc4oc3=O)cs2)cc1OC | 8.0% | -2.0% |
| O=C1/C(=C/c2ccccc2F)CSc2ccccc21 | -102.3% | ? |
| Cn1c(N2CCCCC2)nc2c1c(=O)n(Cc1ccccc1)c(=O)n2C | -9.2% | -12.4% |
| CCN(CC)Cc1ccccc1CNC(=O)c1cc2ccc(OC)cc2nc1C | -20.2% | -19.0% |
| CC(C)NC(=O)c1ccc([N+](=O)[O-])cc1 | 4.6% | 0.8% |
| COc1cc2c(cc1OC)-c1nnc(-c3cccnc3)n1C(C)(C)C2 | 4.9% | 13.9% |
| Cc1cc(C)cc(NS(=O)(=O)c2ccc3[nH]cc(C(=O)NCc4ccco4)c(=O)c3c2)c1 | ? | 241.1%[activator] |
| Cc1ccc(Cn2c(C)c3cnn(CC(=O)N4CCN(c5cc(C)ccc5C)CC4)c(=O)c3c2C)cc1 | ? | ? |
| CCc1ccc2oc(C(=O)N(Cc3cccs3)C3CCS(=O)(=O)C3)cc(=O)c2c1 (stereo not given) | -2.3% | 0.0% |
| COc1ccc(C(=O)Nc2nc(-c3ccc(Br)s3)ns2)cc1 | 16.3% | -14.2% |
| COc1ccc(OC)c(NC(=O)[C@H]2C[C@H](CCSC)N[C@]23C(=O)Nc2c(C)cc(Cl)cc23)c1 | -12.3% | -7.0% |
| Cc1cccc(C)c1NC(=O)CNC(=O)c1cc2ccc(F)cc2nc1C | -11.0% | -11.4% |
| CCOc1ccc(CNCc2c(C(=O)O)n(Cc3ccccc3F)c3cc(OC)ccc23)cc1 | -9.2% | 7.3% |
| CCc1ccc(C2CC(=O)Nc3c2c(C)nn3-c2nncc(-c3ccc(F)cc3)n2)cc1 (stereo not given) | -0.6% | -5.5% |
| Cc1oc(-c2ccccc2F)nc1CSc1nnc(C)n2c1cc1occc12 | 15.2% | 10.6% |
| CC(C)c1ccc(-c2nnn(CCC(=O)Nc3sc4c(c3C#N)CCCC4)n2)cc1 | -21.6% | -11.4% |
| O=C(Nc1cccc(C(F)(F)F)c1)c1cc(S(=O)(=O)N2CCCC2)c[nH]1 | -15.9% | -2.5% |
| CCN(Cc1ccncc1)C(=O)c1cc(=O)c2ccccc2o1 | 3.0% | 7.7% |
| CC(Oc1cccc(F)c1)C(=O)NCCc1cccs1 (stereo not given) | 19.0% | 0.7% |
| O=C(NCc1ccc(F)cc1)c1c2c(nc3ccccc13)C(=O)N(C1CCCCC1)C2 | 4.5% | 4.4% |
| COc1ccc(Nc2nc(N)c(C(=O)c3ccc(C)cc3C)s2)cc1Cl | 6.5% | -11.1% |
| CC(C)N(CCNC(=O)CCc1ncc(-c2ccc(Cl)cc2)o1)C(C)C | 6.3% | -19.0% |
| O=Cc1c(-c2ccc(Cl)cc2)[nH]c2ccc(Br)cc12 | 372.4%[activator] | 55.1%[activator] |
| CC(=O)Nc1ccc(-c2nnc3n(CC(C)C)c(=O)c4ccccc4n23)cc1 | -6.5% | 37.1%[activator] |
| Cc1ccc2c(CN3CCc4cc(S(N)(=O)=O)ccc43)cc(=O)oc2c1 | 33.3% | 34.0%[activator] |
| COc1cc(/C=C/C(=O)c2cc3ccccc3oc2=O)cc(OC)c1OC | 3.5% | 7.0% |
| Cc1ccccc1NC(=O)NCCc1c[nH]c2ccccc12 | 0.0% | 10.9% |
| COc1ccccc1OC(=O)COc1c(C)cc(Br)cc1Cl | -6.4% | -9.9%[1.06 µM] |
| COC(=O)c1ccc(NC(=O)CSc2nc(C)cc(C)c2C(=O)Nc2ccccc2)cc1 | -16.7% | 5.6% |
| O=C(/C=C/c1ccncc1)N1CCN(Cc2cccc(C(F)(F)F)c2)CC1 | ? | -5.3%[1.06 µM] |
| COc1cc(/C=C/c2nc3c(ccc4ccccc43)s2)cc(OC)c1OC | 34.0%[activator] | 40.5%[activator] |
| COc1ccccc1CNC(=O)c1nc(-c2ccccc2)oc1C | 8.4% | 0.5% |
| Cc1nn(-c2ccc(N3CCCCC3)nn2)c(C)c1CCC(=O)Nc1ccc(F)cc1F | -15.6% | ? |
| Cn1nc(CC(=O)Nc2ccc(Cl)c(Cl)c2)c2ccccc2c1=O | ? | ? |
| Cc1ccc(NS(=O)(=O)c2cc3[nH]c(=O)c(=O)[nH]c3cc2C)cc1N(C)C | 7.1% | 15.3% |
| COc1ccccc1NC(=O)CCS(=O)(=O)c1cc2c3c(c1)CCN3C(=O)CC2 | -13.8% | -7.4% |
| CCCSc1oc(-c2ccccc2)nc1S(=O)(=O)c1ccccc1 | -8.0% | 95.5%[activator] |
| COc1cc(-c2nc3n(n2)C(c2ccccc2)C2=C(CCCC2=O)N3)cc(OC)c1OC (stereo not given) | 83.3%[activator] | 95.0%[activator] |

Compounds above that have an aryl thioether with sulfur outside any ring:
| compound | 2A firefly | StopGo RLuc |
| --- | --- | --- |
| CCN(C(=O)CSc1nc(-c2ccccc2)no1)c1cccc(C)c1 | ? | ? |
| Cc1ccc(C(=O)CSc2nc3ccccc3c(=O)[nH]2)cc1 | 113.9%[activator] | 4.4% |
| CC(C)CC(=O)Nc1nnc(SCc2cc(=O)n3ccccc3n2)s1 | -26.1% | -9.2% |
| Cc1oc(-c2ccccc2F)nc1CSc1nnc(C)n2c1cc1occc12 | 15.2% | 10.6% |
| COC(=O)c1ccc(NC(=O)CSc2nc(C)cc(C)c2C(=O)Nc2ccccc2)cc1 | -16.7% | 5.6% |
| CCCSc1oc(-c2ccccc2)nc1S(=O)(=O)c1ccccc1 | -8.0% | 95.5%[activator] |

The list continues:
| compound | 2A firefly | StopGo RLuc |
| --- | --- | --- |
| Cn1c(=O)c2c(nc(NCCO)n2Cc2ccc(Cl)cc2)n(C)c1=O | 12.6µM* | ? |
| Cc1cccn2c(=O)c(C(=O)NCc3cccc(F)c3)cnc12 | 19.2% | -12.6% |
| CC1=C(C(=O)Nc2ccccc2C(=O)NCCc2ccco2)SCCO1 | -2.6% | 17.9% |
| CCC(C)NC(=O)c1cc2cc(OC)ccc2oc1=O (stereo not given) | 141.0%[activator] | 2.5% |
| CCc1ccc(NC(=O)CN2C(=O)c3cccc4cccc2c34)cc1 | -6.5% | -0.8% |
| CC(=O)c1csc(NC(=O)CN(C)S(=O)(=O)c2ccc(F)cc2)n1 | -2.6% | -8.9% |
| COc1ccccc1NS(=O)(=O)c1cc(-c2cnc(C)o2)ccc1C | ? | 44.4%[activator] |
| COc1ccc2cc(C(=O)NCC(C)C)c(C)nc2c1 | 30.2%[activator] | -5.6% |
| CCc1nnc(NC(=O)c2cc(=O)c3cc(C)c(C)cc3o2)s1 | 170.2%[activator] | 275.7%[activator] |
| CC(C)CCNc1nc2c([nH]1)c(=O)n(C)c(=O)n2C | 15.2% | 11.2% |
| CCC(=O)Nc1ccc2nc(SCCOc3ccc(C)cc3)sc2c1 | -6.6% | -11.8% |
| COc1ccc(Cn2c(=O)n(-c3ccc(C)cc3)c(=O)c3c2c2cc(C)ccc2n3C)cc1 | -12.7% | -6.4% |
| Cc1csc2nc(-c3cccc(NC(=O)c4c(F)cccc4F)c3)cn12 | 70.9%[activator] | 0.0% |

2 of the compounds above, field by field:
> CC(C)CCNc1nc2c([nH]1)c(=O)n(C)c(=O)n2C
  2A firefly: 15.2%; StopGo RLuc: 11.2%

> CCC(=O)Nc1ccc2nc(SCCOc3ccc(C)cc3)sc2c1
  2A firefly: -6.6%; StopGo RLuc: -11.8%
